From PubChem BioAssay
AID923: qHTS Assay for Allosteric/Competitive Inhibitors of Caspase-1: Spectroscopic Profiling in AFC Spectral Region. compound fluorescence, AFC spectral region (405/520 nm); almost no hit is shown here. Potency, µM (titrated, usually from 57.5 µM), for inactives: at the top dose fluorescence increase, hits mostly activators. actives 1.1% (n = 75,000); active = well fitted activation curve with a large enough effect; inconclusive = small, poorly fitted or top-dose-only effect;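 also: potency is read from the fitted curve at half-maximal effect; 0% is about no effect; scaled to a free AFC standard on each plate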
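Baseline compound fluorescence (AFC region, 405 nm ex/520 nm em) taken from the intercept of kinetic reads with 50 nM caspase-1 and 5 uM Ac-WEHD-AFC; normalized to an on-plate AFC standard curve; compounds titrated up to 57 uM.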
Resorufin fluor: compound fluoresces in the resorufin spectral region. actives 0.04% (n = 59,000). max dye-equivalent concentration, M. Compound fluorescence, resorufin region 547/598 nm, buffer; stronger effect = higher value. AID 588; active = above 10 nM dye equivalent; inconclusive = 1 to 10 nM; inactive = 1 nM or less; a few of its hits are not listed in these tables; also: highest value over a series up to 38 µM
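Compounds in 100 mM Tris buffer, pH 8.0, incubated 15 min at room temperature, then read with 547 nm excitation and 598 nm emission filters. Fluorescence was converted to dye-equivalent concentration using an on-plate six-point resorufin standard curve.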
A647 fluor: compound fluoresces in the A647 spectral region. Compound fluorescence, A647 channel (570/671 nm), Tris buffer. max dye-equivalent concentration, M. 59,000 tested, under 10 active. AID 592; active means above 1 µM dye equivalent; inconclusive means 0.1 to 1 µM; inactive means 0.1 µM or less;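 also: values scaled relative to a standard on each plate; highest value over a series up to 38 µM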
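Tris 100 mM pH 8.0; cpd + A647 stds pin-transferred; 15 min RT; CCD imager, ex 570/em 671. Output = A647-equivalent conc. per cpd conc.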
A488 autofl: compound autofluorescence in A488 spectral region; compound autofluorescence, A488 spectral region, dye equivalency; stronger effect = higher value; max dye equivalency, M; actives 0.1% (n = 59,000); active = above 10 nM dye equivalent; inconclusive = 1 to 10 nM; inactive = 1 nM or less; about half of its hits are not listed in these tables;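 also: highest value over a series up to 38 µM; compound alone in buffer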
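Readout is A488 dye-equivalent concentration, calibrated by a per-plate six-point Alexa 488 series. Compounds in 100 mM Tris buffer pH 8.0 were incubated 15 min at room temperature. Plates were imaged using 480 nm excitation/540 nm emission filters.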
TSHR agonist: agonists of human thyroid stimulating hormone receptor; P16473; HEK293-CNG-TSHR cells (CNG channel as cAMP sensor), membrane potential dye, cAMP; Potency, µM (highest dose often 57.1 µM), for the others: at the top dose activation, most hits filed as activators; actives 0.48% (n = 73,000); AID 926; active = well fitted activation curve of enough size with the parental cells flat; inconclusive = any curve in the parental cells; inactive = parental cells flat and receptor cells flat or falling; also: potency is read from the fitted curve at half-maximal effect; % of control where 0% means no effect; weak receptor curves with flat parental cells got no call and are not listed
Target sequence (P16473 whole entry, looked up): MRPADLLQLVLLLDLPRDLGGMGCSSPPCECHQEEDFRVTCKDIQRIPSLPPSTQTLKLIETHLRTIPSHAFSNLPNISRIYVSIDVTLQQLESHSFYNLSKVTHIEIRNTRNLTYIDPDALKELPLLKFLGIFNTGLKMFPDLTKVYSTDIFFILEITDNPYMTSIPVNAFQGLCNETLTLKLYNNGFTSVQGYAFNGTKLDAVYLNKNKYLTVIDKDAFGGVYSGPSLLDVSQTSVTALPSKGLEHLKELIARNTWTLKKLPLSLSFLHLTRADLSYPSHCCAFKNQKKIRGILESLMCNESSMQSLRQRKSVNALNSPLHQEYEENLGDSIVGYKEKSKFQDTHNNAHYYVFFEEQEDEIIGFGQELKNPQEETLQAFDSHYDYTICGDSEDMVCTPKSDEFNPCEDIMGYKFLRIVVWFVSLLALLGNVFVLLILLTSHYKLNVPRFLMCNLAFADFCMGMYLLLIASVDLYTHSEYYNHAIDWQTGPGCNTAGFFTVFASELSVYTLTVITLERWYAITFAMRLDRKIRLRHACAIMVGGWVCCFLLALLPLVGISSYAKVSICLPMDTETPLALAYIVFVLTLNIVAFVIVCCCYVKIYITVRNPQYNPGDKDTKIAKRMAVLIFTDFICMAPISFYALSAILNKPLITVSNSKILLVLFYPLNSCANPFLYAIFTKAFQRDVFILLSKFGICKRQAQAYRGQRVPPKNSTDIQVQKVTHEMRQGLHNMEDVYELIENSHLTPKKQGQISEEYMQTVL
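HEK 293 cells stably expressing TSHR and a cAMP-gated CNG channel; parental CNG-only cells as counterscreen. Cells preloaded 60 min with membrane potential dye plus 100 uM RO 20-1724, then compound 30 min; fluorescence read at 590 nm.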
* marks the source's active call; other numbers are inactive results; i = inactive; ? = inconclusive; . = no result given; & = joins results of further samples; [ ] = remark or other dose. Only part of the results is shown (hit frequency here may not be typical).

SMILES	AID923	Resorufin fluor	A647 fluor	A488 autofl	TSHR agonist
Cc1ccc2cc(CN(C(=O)c3ccco3)c3ccccc3)c(=O)[nH]c2c1	.	i	1e-09	i	.
Cc1ccc(-c2nn3c(C)nnc3s2)cc1NC(=O)c1ccc(-c2ccc(Cl)cc2Cl)o1	2.4%	i	6.4e-09	i	?
Cc1ccc(C)c(N(CC(=O)N(C)C)S(C)(=O)=O)c1	-0.7%	i	1.2e-08	i	-5%
CN1CCN(Cc2c(O)c(Cl)cc3c(-c4ccccc4)cc(=O)oc23)CC1	.	i	4.9e-09	i	.
C=CCn1c(NCCOC)nc2c1c(=O)n(C)c(=O)n2C	1.9%	i	2.2e-08	i	1%
CCC(C(=O)N1CCc2cc(OC)c(OC)cc2C1)c1ccccc1 (centres undefined)	1.6%	i	9.3e-09	i	?
CCOc1ccc2nc(NS(C)(=O)=O)sc2c1	-2.0%	i	3.7e-09	i	22%
O=c1c2ccccc2n(Cc2cccc(F)c2)c(=O)n1C1CCCC1	-0.4%	i	1e-09	i	21%
Cc1ccc2nsnc2c1S(=O)(=O)NCc1ccncc1	-1.1%	i	1.2e-09	i	28%
COC(=O)CCC/C=C1/SCC(NC(=O)c2ccccc2)C1O (centres undefined)	-1.7%	i	4e-08	i	-1%
COC(=O)COc1ccc(S(=O)(=O)Nc2ccccc2SC)cc1	1.0%	i	1.4e-08	i	?
CCOC(=O)Nc1cc(=O)c2ccccc2o1	-3.0%	.	.	.	4%[11.4 µM]
C#CCCCCCCCCCCCCCCCC(=O)O	-2.2%	.	.	.	5%
OC(COCc1ccco1)CN1CCN(C(c2ccccc2)c2ccccc2)CC1 (centres undefined)	-0.6%	i	5.8e-09	i	1%
O=C(CN1CCOCC1)Nc1ccc(Br)cn1	-0.9%	i	1e-09	i	?
O=C(Nc1cc(Cl)ccc1Cl)c1noc2c1CCCC2	-1.6%	.	.	.	-2%
CCOC(=O)Cc1csc(NC(=O)CN(C)S(=O)(=O)c2cccc3cccnc23)n1	1.3%	.	.	.	?
O=C(NCc1cccs1)c1noc2c1CCCCC2	-1.4%	i	1e-09	i	1%
COc1cccc(C2Nc3ccccc3C(=O)N2O)c1O (centres undefined)	0.0%	i	1e-09	i	-10%
CC(C)CC(NC(=O)C1CCCN1C(=O)OC(C)(C)C)C(=O)NCC(N)=O (centres undefined)	-0.8%	i	3.9e-08	i	-1%
Cc1cccc(NC(=O)Nc2cccc(C#N)c2)n1	1.1%	.	.	.	4%
CN1CCN(/C=C2\SC(=S)NC2=O)CC1	1.0%	i	4.3e-09	i	24%
Cc1ccccc1CS(=O)(=O)CCC(=O)NCCCN1CCOCC1	1.6%	i	4.5e-09	i	4%
c1cncc(-c2nc3c4ccccc4nc(N4CCC(N5CCCCC5)CC4)n3n2)c1	1.3%	i	2.5e-08	i	8%[11.4 µM]
COc1ccc(-n2ccnc2SCC(=O)NCc2ccc3c(c2)OCO3)cc1	0.3%	i	8.3e-09	i	.
Carrying on:
SMILES	AID923	Resorufin fluor	A647 fluor	A488 autofl	TSHR agonist
COn1c(=S)[nH]c2ccccc2c1=O	.	i	2.2e-09	i	.
O=C(Nc1ccccc1C(=O)N1CCCCC1)c1cccc(S(=O)(=O)N2CCOCC2)c1	-0.9%	i	2.1e-08	i	8%
COc1cc(OC)cc(-c2nc(-c3ccccc3OC)no2)c1	7.5%	i	1e-09	i	?
Cc1cc(C(=O)NCc2ccccc2)no1	-0.3%	i	1e-09	i	6%
Cc1cc(C)c2cc(CN(Cc3nnnn3C3CCCCC3)CC3CCCO3)c(=O)[nH]c2c1 (centres undefined)	-0.3%	i	3.7e-09	i	?
CCN1C(=O)/C(=C/N(C)c2ccccc2)OC1=S	1.3%	i	3.2e-08	i	-2%[11.4 µM]
CCOC(=O)N/C(N)=N/c1nc2ccccc2s1	-0.3%	.	.	.	8%[11.4 µM]
C=CCSc1nc2c(c(=O)[nH]c(=O)n2C)n1C(C)C	0.0%	i	3.8e-09	i	10%
CCSc1nc(-c2ccccc2)c(C#N)c(=O)[nH]1	0.3%	i	3.5e-09	i	22%
COc1ccc(C2CC(=O)N3CN(Cc4ccco4)CSC3=C2C#N)cc1 (centres undefined)	2.3%	i	1.8e-08	i	2%
COc1ccccc1C1N(c2cc(Cl)ccc2OC)C(=O)C2CCCN21 (centres undefined)	-0.7%	.	.	.	22%
COC(=O)N1CCC2(CCCN(c3ccncc3)C2)CC1	1.6%	i	2.2e-08	i	3%
Cn1c(=O)c2c(ncn2CC(=O)N2CCCc3ccccc32)n(C)c1=O	-0.7%	.	.	.	-6%
CCOC(=O)c1ccc(NC(=O)CCNc2c(N3CCCC3)c(=O)c2=O)cc1	-0.2%	i	1e-09	i	0%
c1ccc(-n2nnnc2SCc2cn3cccnc3n2)cc1	-1.3%	i	3e-08	i	-7%
CCOC(=O)N1CCN(c2c(NCc3ccccn3)c(=O)c2=O)CC1	-0.5%	.	.	.	2%
O=C(Nc1ccc2c(c1)OCO2)Nc1ccc(Br)cn1	1.0%	i	1.6e-09	i	-15%
O=C(NC1CCCC1)C1CC(=O)N(CCc2ccccc2)C1 (centres undefined)	2.6%	i	1e-09	i	6%
Cn1c(CN2CCOCC2)nnc1SCC(=O)NC1CCCCC1	0.2%	i	5.7e-09	i	.
CCn1cc(Br)c(C(=O)Nc2ccc(F)c(Cl)c2)n1	-1.3%	.	.	.	3%
COc1ccc2nc(SCC(N)=O)[nH]c2c1	-1.2%	i	1e-09	i	-5%
COC(=O)c1ccccc1S(=O)(=O)N(CCCN1CCOCC1)Cc1cccs1	-1.6%	i	6.1e-09	i	?
Cc1cc(C)cc(OCCCC(=O)O)c1	2.0%	i	3.8e-08	i	3%
CC(C)c1[nH]nc2c1C(c1ccc(OC(=O)c3ccco3)cc1)C(C#N)=C(N)O2 (centres undefined)	-1.0%	i	1e-09	i	?
O=C(Nc1ccc2c(c1)oc1ccccc12)c1cccnc1	0.1%	i	4.1e-09	i	3%
The listing continues.
SMILES	AID923	Resorufin fluor	A647 fluor	A488 autofl	TSHR agonist
Cc1ccc(C(=O)NCCNC(=O)CN2CCCC2)cc1	0.4%	.	.	.	3%
Cc1cc(C(=O)O)sc1C	0.3%	i	1.3e-08	i	5%
COc1ccc2c(-c3ccccc3)cc(N3CCOCC3)nc2c1	2.0%	i	3.4e-09	i	?
O=C(Nc1nc2ccccc2[nH]1)C1CC(=O)N(c2ccc3c(c2)OCCO3)C1 (centres undefined)	-0.4%	i	1e-09	i	1%
CN(C)c1ccc(C(=S)N2CCOCC2)cc1Br	-0.2%	.	.	.	?
NC(=O)c1cccc(N)c1	-3.0%	i	1.5e-09	i	2%&-2%
Cn1c(=O)[nH]c(=O)c2c1nc(N1CCOCC1)n2CC(O)COc1ccc2ccccc2c1 (centres undefined)	-0.5%	i	3e-08	i	6%
O=c1c2nnn(Cc3ccccc3)c2ncn1C/C=C/c1ccccc1	3.1%	.	.	.	?
CCn1c(CCCNC(=O)c2cccs2)nc2ccccc21	0.3%	.	.	.	2%
O=C1CCn2nc(-c3ccc(Cl)cc3)cc2N1	0.9%	.	.	.	-23%
Oc1[nH]c2ccccc2c1OCc1ccncc1	-0.7%	i	1.8e-08	i	-3%
O=C(O)c1c(F)c(F)cc2ccccc12	-2.9%	i	4.2e-09	i	6%
CCn1c(COc2ccc3c(c2)CCCC3)nnc1SCC(=O)Nc1nccs1	1.4%	i	1e-09	i	.
COC(=O)c1ccc(C(NC(=O)OCc2ccccc2)/C(=C/[C@@H](C)C(=O)NCc2ccc(C)o2)c2cccnc2)cc1 (some centres undefined)	1.2%	.	.	.	4%
Clc1ccc(Nc2nc(NCCN3CCOCC3)nc(N3CCOCC3)n2)cc1	0.0%	i	1.6e-08	i	1%[11.4 µM]
CC1CCN(c2nc3c(c(=O)[nH]c(=O)n3C)n2Cc2ccccc2Cl)CC1	-1.1%	.	.	.	?
Cc1cc(=O)[nH]c(=S)[nH]1	-1.1%&2.6%	.	.	.	-1%&6%
Cc1cc(NCc2ccccc2Cl)n2nnnc2n1	2.4%	i	2.5e-08	i	-1%
Cn1c(C(=O)N2CCN(Cc3ccccc3)CC2)cc2c(=O)n(C)c3ccccc3c21	4.5%	.	.	.	2%
CCC(=O)N(Cc1cc2c(C)cc(C)cc2[nH]c1=O)C1CCCCC1	3.0%	i	6.3e-08	i	6%
Cc1csc(C2=C(O)CN(CCc3ccccc3)C2=N)n1	1.4%	i	2.5e-08	i	-19%
Cc1ccc(C(=O)Oc2ccc3c(c2)ncn3C)cc1	-0.3%	i	4.2e-08	i	-1%
Nc1nc(-c2ccc(Br)s2)c(Br)s1	-0.9%	i	6.8e-09	i	-12%
CC(C)N(C(=O)CSc1nn2c(=O)c(C(C)(C)C)nnc2s1)c1ccccc1	1.1%	i	2.5e-08	i	1%
Cc1cccc(-n2c(N)cc(=O)[nH]c2=S)c1	-0.1%	.	.	.	1%
The results go on.
SMILES	AID923	Resorufin fluor	A647 fluor	A488 autofl	TSHR agonist
Cc1ccc(C(c2nnnn2CC2CCCO2)N2CCN(c3cccc(C)c3C)CC2)cc1 (centres undefined)	-3.6%	i	2.2e-08	i	?
COC(=O)C1CCN(C(=O)c2ccccc2NC(C)=O)CC1	-0.3%	.	.	.	-13%
COc1ccc2c(=O)cc(-c3ccc(O)cc3)oc2c1	2.4%	i	1e-09	i	29%
CCN1CCN(c2cc(=O)n(C3CCCCC3)c(=O)[nH]2)CC1	4.2%	.	.	.	?
Cn1cnc2c1c(=O)n(Cc1cccc(Br)c1)c(=O)n2C	-0.9%	i	7.1e-08	i	75%
c1cncc(CNc2ncnc3ccc(-c4cccnc4)cc23)c1	0.4%	i	1e-09	i	-2%
Cc1csc(NC(=O)C2CCCN2C(=O)OCC(C)C)n1 (centres undefined)	1.0%	i	1.5e-08	i	.
Cn1c(Cn2cnc3ccccc32)nnc1SCC(=O)CC(=O)Nc1ccccc1	1.0%	i	1.8e-08	i	-4%
COc1ccc(NC(C)=O)cc1NC(=O)CSc1nc2ncccc2[nH]1	3.5%	i	1e-09	i	1%
O=C(c1ccccc1)N1CCN(c2ccccc2F)CC1	1.4%	i	3.6e-08	i	8%
O=C(OCc1ccccc1F)c1ccc2c(c1)OCCO2	-0.5%	i	2.5e-08	i	?
O=C(Cn1cnc2c(cnn2-c2ccccc2Cl)c1=O)N1CCc2ccccc21	0.3%	i	1.9e-08	i	1%
O=S(=O)(Nc1cccc(C(F)(F)F)c1)c1cccnc1	-0.7%	i	4.4e-08	i	-3%
CCc1ccccc1NC(=O)CSc1nnc([C@H](CCSC)NC(=O)OC(C)(C)C)o1	2.5%	i	1.1e-08	i	14%
O=C(CCSc1nc(-c2ccco2)cc(C(F)(F)F)n1)NCCc1ccccc1	-0.1%	i	4.8e-09	i	?
Cc1cc(N(C(=O)c2ccco2)C(C(=O)NC2CCCCC2)c2ccccc2)ccc1-n1cnnn1 (centres undefined)	-0.1%	i	3e-09	i	16%
Cc1ccc(Cn2c(=O)c3ccccc3n3c(CCC(=O)O)nnc23)cc1	1.4%	.	.	.	9%
O=C(O)CCCc1nc2ccccc2s1	1.5%	i	2.4e-08	i	22%
